Assay outcomes (PubChem)
LANA-H2B inh = blockers of LANA interaction with H2A/H2B – biochemical, FP readout, HTS, primary screen | cell-free LANA-H2A/H2B peptide, fluorescence polarization | inhibition, % (no concentration beside the values) | 0.6% of 320,000 active | AID 2629, 2010; in the data active means inhibition mostly above about 10%, no sharp cut-off; inactive means mostly below about 6.7%;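 further: stock transfer was 7.5 nL into about 10 µL; 0% = median of vehicle wells and 100% = median of positive control wells; one replicate is shown; the record names a cut of 25% in any replicate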
Target sequence (Q9QR71 whole entry, looked up): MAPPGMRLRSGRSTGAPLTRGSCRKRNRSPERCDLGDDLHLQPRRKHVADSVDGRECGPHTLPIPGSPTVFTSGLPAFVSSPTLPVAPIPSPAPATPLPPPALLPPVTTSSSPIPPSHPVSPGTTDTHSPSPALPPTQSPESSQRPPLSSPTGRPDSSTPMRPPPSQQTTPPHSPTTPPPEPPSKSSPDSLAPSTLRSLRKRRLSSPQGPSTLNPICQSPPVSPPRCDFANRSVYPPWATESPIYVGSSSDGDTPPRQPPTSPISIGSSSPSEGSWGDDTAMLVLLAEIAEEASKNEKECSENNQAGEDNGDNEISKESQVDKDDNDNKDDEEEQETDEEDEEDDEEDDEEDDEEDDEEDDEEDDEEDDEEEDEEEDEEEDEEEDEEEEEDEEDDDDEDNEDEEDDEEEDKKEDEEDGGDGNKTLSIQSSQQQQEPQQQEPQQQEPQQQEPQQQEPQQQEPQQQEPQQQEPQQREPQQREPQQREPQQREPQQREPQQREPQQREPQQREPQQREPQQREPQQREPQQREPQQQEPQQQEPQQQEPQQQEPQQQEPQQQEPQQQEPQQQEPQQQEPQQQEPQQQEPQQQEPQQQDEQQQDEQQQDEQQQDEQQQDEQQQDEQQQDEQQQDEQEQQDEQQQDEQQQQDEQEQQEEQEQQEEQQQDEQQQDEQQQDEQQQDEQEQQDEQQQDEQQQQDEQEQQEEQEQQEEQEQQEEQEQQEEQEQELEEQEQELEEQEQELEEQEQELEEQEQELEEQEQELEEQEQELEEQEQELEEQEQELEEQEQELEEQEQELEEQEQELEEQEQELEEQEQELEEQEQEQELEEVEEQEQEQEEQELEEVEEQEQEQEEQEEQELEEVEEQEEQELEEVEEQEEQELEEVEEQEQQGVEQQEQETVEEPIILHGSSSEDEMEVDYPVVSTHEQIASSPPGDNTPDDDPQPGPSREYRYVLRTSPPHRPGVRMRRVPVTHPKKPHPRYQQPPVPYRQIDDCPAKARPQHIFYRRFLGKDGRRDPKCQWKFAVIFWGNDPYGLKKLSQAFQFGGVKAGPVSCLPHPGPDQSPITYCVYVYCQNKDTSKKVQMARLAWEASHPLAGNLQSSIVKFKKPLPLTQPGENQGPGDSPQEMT
Vif A3G = inhibitors of Vif binding to APOBEC3G peptide, primary screen, biochemical, TR-FRET, GST-Vif 1-94, biotin-A3G peptide, dose response retest (AID 1117319); TR-FRET GST-Vif / biotin-A3G peptide binding; higher % means a stronger effect; test concentration not given here; strong numbers were not always called active; Virion infectivity factor (Human immunodeficiency virus type 1 group M subtype B (isolate …; inhibition, %; hits with a dose series show IC50 in µM; 0.57% of 260,000 active;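 active means above the screen mean plus three standard deviations and confirmed in dose response; inconclusive means results disagree or hit not tested in dose response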;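 further: Vif residues 1-94 fused to GST binding biotinylated APOBEC3G peptide 110-148; 0% = full assay without inhibitor and 100% = GST in place of GST-Vif; retest series ran down from 100 µM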
A1 inh = caspase 3/7 activation in MEF A1-2A-BIM cells, primary screen, A1 inhibitor project, cell-based, luminescence, HTS; Caspase-Glo 3/7 luminescence, 3 h; percent of clofoctol response, vehicle zero; caspase activation, % (no concentration beside the values); 0.066% of 330,000 active;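 active means over half of replicate activation scores above 10%, or exactly half above 10 with the replicate mean above 10; inconclusive means replicate mean below 10 yet half the replicates above 10; inactive means over half of replicates below 10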;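 further: wells of about 30 µL received 50 nL stock; many hits fall short of the cut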
Calb FLC = C. albicans growth inhibition with fluconazole, primary screen, CaCi-2 strain, Alamar Blue fluorescence | C. albicans CaCi-2 (fluconazole-resistant clinical isolate) + fluconazole, 48 h | growth inhibition, % (test concentration not listed) | 0.57% of 300,000 active | AID 1979, 2009;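 active means most replicates above 75%; inconclusive means exactly half above 75%; inactive means most below 75%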;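 further: all wells also contain fluconazole at 8 µg/ml as a sub-toxic cotreatment; 0% = median of DMSO wells and 100% = median of geldanamycin control wells; wells of about 8 µL received 7.5 nL stock; the first replicate is given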
AF4-AF9 inh = inhibitors of AF4 peptide binding to AF9, primary screen, biochemical, AlphaScreen, biotin-AF4 peptide, FLAG-AF9, single point | Protein AF-9 (Homo sapiens), P42568 | inhibition, % at 10 µM | 0.47% of 350,000 active | AID 651704, 2012;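 active means every replicate reaching a set inhibition limit, whatever the replicate mean, cut at about 25% in these data; inconclusive means mean inhibition reaches that limit but some replicates miss it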;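 further: 0% = plate neutral control median and 100% = total signal loss; the record names both 10 and 1 µM as test concentration; the first replicate is given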
RanGTP-Imp inh = inhibitors of RanGTP-importin-beta interaction, primary screen, biochemical, FRET, CFP-Ran, YFP-importin-beta, homogeneous; Ran GTPase (GTP-bound) - importin-beta complex; cell-free CFP-Ran/YFP-importin-beta FRET ratio; inhibition, % (concentration not given with the values); 1.1% of 300,000 active;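 active means most replicates above 15%; inconclusive means exactly half above 15%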;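 further: 0% = DMSO wells and 100% = Ran loaded with GDP instead of GTP; wells of about 40 µL received 100 nL stock; the first replicate is given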
Beta apoptosis = inhibitors of cytokine-induced beta cell apoptosis, primary screen, luminescence. INS-1E cytokine-induced death, ATP luminescence, 48 h; percent of positive-control rescue, neutral wells zero. protection from apoptosis, % (no concentration beside the values). 0.8% of 300,000 active. AID 435005, 2010;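 active means all replicates at 75% or more, or half of them and the mean; inconclusive means half reach 75% but not the mean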;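 further: 0% = cytokine-treated negative control wells and 100% = positive control rescue; higher means more ATP so stronger rescue from cytokine killing; wells of about 40 µL received 100 nL stock; the first replicate is given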
T cruzi inh = inhibitors of intracellular T. cruzi growth, primary screen, luminescence, NIH3T3 host cells. T. cruzi beta-gal in NIH3T3, 90 h. 1.4% of 300,000 active. inhibition, % (no concentration beside the values). AID 1885, 2009;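 active means mean inhibition across valid replicates above about 55%, limit read from the data; inconclusive means mean below that limit but half or more replicates reach it; inactive means mean below it, under half of replicates reach it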;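 further: signal also drops with host cell toxicity which is not excluded here; 0% = plate median of DMSO wells and 100% = zero luminescence signal; higher percent means less beta-gal luminescence so fewer parasites; stock transfer was 50 nL into about 50 µL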
The depositor's hits bear a star; ? = inconclusive; · = not tested or not shown; & = joins results of further samples. Hits appear at their usual frequency (roughly 4.3% active in at least one column).

SMILES	LANA-H2B inh	Vif A3G	A1 inh	Calb FLC	AF4-AF9 inh	RanGTP-Imp inh	Beta apoptosis	T cruzi inh
CCSc1nnc(NC(=O)CSc2nccn2-c2cccc(C)c2C)s1	2.7	-4%	0.5	-11	·	-1.4	-1	-1
COC(=O)c1sc(NC(=O)C2CCCCC2C(=O)O)c(C(=O)OC)c1C (stereo not given)	2.0	33%	-1.2	1	·	-1.3	2	3
C#CCOCCOCCOCCNc1nc(N2CCN(C(=O)[C@H](C(C)C)n3cc(CCO)nn3)CC2)nc(N2CCN(C(=O)[C@H]([C@@H](C)CC)n3cc(CCCN=C(N)N)nn3)CC2)n1	0.6	-2%	0.8	-2	6.8	?	-6	-4
COc1ccc(OC)c(C(=O)c2ccc(C(=O)O)cc2)c1	3.2	5%	-0.8	-4	·	4.5	-2	-12
CCSc1nc2c(cnn2-c2ccc(C)cc2)c(=O)[nH]1	-3.7	-4%	-0.3	43	-1.7	?	-4	-9
O=C(CCNS(=O)(=O)c1ccc2c(c1)CCC(=O)N2)Nc1ccc2c(c1)OCCO2	2.2	4%	0.1	-13	·	?	-3	-4
Cc1cc(NC(=O)COC(=O)C2=COCCO2)c([N+](=O)[O-])cc1C	2.0	11%	0.1	-3	0.5	-0.8	2	-10
O=C(COC(=O)/C=C/c1ccc(OC(F)F)cc1)Nc1ccc(S(=O)(=O)N2CCCC2)cc1	-8.9	2%	-1.2	-1	·	-13	0	-23
O=C(CCN1C(=O)C2C3C=CC(C3)C2C1=O)Nc1c(F)cc(F)cc1Br (stereo not given)	-2.8	-3%&2%	0.3	8	·	-1.0	6	-5
CC(OC(=O)c1cccs1)C(=O)NCc1ccc2c(c1)OCO2 (stereo not given)	1.3	-2%	-0.2	-8	·	1.1	-2	-9
COc1ccc(N(CC(=O)NC(C)c2ccccc2)S(=O)(=O)c2ccc(C)cc2)cc1 (stereo not given)	-2.5	1%	0.1	-6	1.7	1.1	-9	11
COCC(=O)Nc1nnc(Cc2ccc(OC)c(OC)c2)s1	-3.0	-5%	0.0	0	·	-2.7	-4	-11
O=C(NCCc1ccccc1)/C(=C\c1ccccc1)NC(=O)c1ccco1	-1.7	2%	-0.3	1	-12	1.8	·	1
COc1ccccc1CNC(=O)COC(=O)c1cc([N+](=O)[O-])ccc1N1CCOCC1	-0.7	·	0.5	4	1.9	-2.9	10	-1
CCn1c(SCC(=O)Nc2cccc(C)c2)nc2c(c1=O)SC(C)C2 (stereo not given)	-1.3	?	-0.6	3	9.5	2.3	0	14
CCN(CC)S(=O)(=O)c1ccc2c3c(cccc13)C(=O)S2	-6.6	6%	0.7	2	·	-1.8	5	-7
Cn1cnnc1SCC(=O)Nc1ccc(Cl)cn1	3.0	-3%	-0.4	-5	-0.8	1.2	·	-19
Cc1cc(Cl)ccc1-n1c(-c2cccnc2)n[nH]c1=S	6.1	2%	-0.1	-3	-3.6	-1.8	-1	3
COc1ccc(O)c(C(=O)c2cnn(C(=O)c3cccc(S(=O)(=O)N4CCOCC4)c3)c2)c1	-1.2	·	-0.2	4	-1.2	-2.2	-7	-6
Cc1nc(-c2cccc(NC(=O)c3ccco3)c2)cs1	-15	·	0.6	73	-1.7	0.1	-9	7
CCOC(=O)c1c(C)[nH]c(C(=O)CN2CC(C)OC(C)C2)c1C (stereo not given)	-0.3	?	0.1	-3	·	29*	-8	5
COc1cccc(CNc2nccs2)c1O	0.5	0%	-1.4	3	-4.5	6.1	·	-12
CC(=O)C(Sc1ncnc2c1nnn2-c1ccc(F)cc1)C(=O)N(C)C (stereo not given)	-0.8	1%	-2.3	-4	·	4.2	-7	-7
N#Cc1c(SCC(=O)Nc2nccs2)nc2c(c1-c1ccco1)CCCC2	0.5	12%	-0.3	2	·	5.5	23	8
CCCCN1C(=O)c2ccc(C(=O)Nc3cccnc3)cc2C1=O	-1.2	-2%	-0.8	?	·	0.0	0	-6

Part of the list above in a different format.
structure | LANA-H2B inh | Vif A3G | A1 inh | Calb FLC | AF4-AF9 inh | RanGTP-Imp inh | Beta apoptosis | T cruzi inh
CCSc1nnc(NC(=O)CSc2nccn2-c2cccc(C)c2C)s1 | 2.7 | -4% | 0.5 | -11 | · | -1.4 | -1 | -1
COC(=O)c1sc(NC(=O)C2CCCCC2C(=O)O)c(C(=O)OC)c1C (stereo not given) | 2.0 | 33% | -1.2 | 1 | · | -1.3 | 2 | 3
C#CCOCCOCCOCCNc1nc(N2CCN(C(=O)[C@H](C(C)C)n3cc(CCO)nn3)CC2)nc(N2CCN(C(=O)[C@H]([C@@H](C)CC)n3cc(CCCN=C(N)N)nn3)CC2)n1 | 0.6 | -2% | 0.8 | -2 | 6.8 | ? | -6 | -4
COc1ccc(OC)c(C(=O)c2ccc(C(=O)O)cc2)c1 | 3.2 | 5% | -0.8 | -4 | · | 4.5 | -2 | -12
CCSc1nc2c(cnn2-c2ccc(C)cc2)c(=O)[nH]1 | -3.7 | -4% | -0.3 | 43 | -1.7 | ? | -4 | -9
O=C(CCNS(=O)(=O)c1ccc2c(c1)CCC(=O)N2)Nc1ccc2c(c1)OCCO2 | 2.2 | 4% | 0.1 | -13 | · | ? | -3 | -4
Cc1cc(NC(=O)COC(=O)C2=COCCO2)c([N+](=O)[O-])cc1C | 2.0 | 11% | 0.1 | -3 | 0.5 | -0.8 | 2 | -10
O=C(COC(=O)/C=C/c1ccc(OC(F)F)cc1)Nc1ccc(S(=O)(=O)N2CCCC2)cc1 | -8.9 | 2% | -1.2 | -1 | · | -13 | 0 | -23
O=C(CCN1C(=O)C2C3C=CC(C3)C2C1=O)Nc1c(F)cc(F)cc1Br (stereo not given) | -2.8 | -3%&2% | 0.3 | 8 | · | -1.0 | 6 | -5
CC(OC(=O)c1cccs1)C(=O)NCc1ccc2c(c1)OCO2 (stereo not given) | 1.3 | -2% | -0.2 | -8 | · | 1.1 | -2 | -9
COc1ccc(N(CC(=O)NC(C)c2ccccc2)S(=O)(=O)c2ccc(C)cc2)cc1 (stereo not given) | -2.5 | 1% | 0.1 | -6 | 1.7 | 1.1 | -9 | 11

Next part:
SMILES	LANA-H2B inh	Vif A3G	A1 inh	Calb FLC	AF4-AF9 inh	RanGTP-Imp inh	Beta apoptosis	T cruzi inh
Cc1nc2ccccc2n1CC(=O)N/N=C\C=C\c1ccccc1	-2.9	0%	-0.8	-4	·	1.4	3	-22
COC(=O)C(C)Oc1ccc2c(c1)O/C(=C\c1cccc(Br)c1)C2=O (stereo not given)	-4.8	-1%	-1.4	-1	0.7	-1.5	-4	-9
Cc1ccc(N(CC(=O)NC(C)(C)C)C(=O)CS(=O)CC(=O)Nc2ccc(F)cc2)cc1 (stereo not given)	-1.4	10%	1.0	14	-1.9	-1.3	-1	-4
O=C1/C(=C/c2cccs2)SC(=S)N1CCCC(=O)N(CCO)c1ccccc1	1.8	·	0.6	-2	-7.5	0.2	-33	-21
CC1(C)C(C=C(Cl)Cl)C1C(=O)Nc1ccc([N+](=O)[O-])cc1 (stereo not given)	0.8	11%	-0.7	·	4.9	·	96*	·
COC(=O)C1=C(C)OC(N)=C(C#N)C1c1cc2cccc(C)c2nc1Cl (stereo not given)	-0.4	-5%	-1.7	5	·	-2.7	-2	-4
C=CCn1c(C(C)NC(=O)CC)nc2ccccc21 (stereo not given)	-4.5	3%	1.3	-1	-35	6.4	-6	-21
COc1ccc(NC(=O)CN2C(=O)CC(C)(C)S(=O)(=O)c3ccccc32)cc1	5.9	-2%	0.6	3	0.1	1.7	1	7
S=c1[nH]nc2c3c4c(sc3ncn12)CCCC4	-4.2	19%	1.6	4	·	3.3	3	-6
CCCOc1ccc(CN2CCOCC2)cc1OC	-1.7	2%	-0.3	-9	1.8	3.1	-3	-2
C=CCn1c(SCC(=O)N(CCO)CCO)nc2sc3c(c2c1=O)CCC3	3.1	6%	0.9	-1	-2.4	3.6	-1	3
COCCCn1c(C)cc(C(=O)CN2c3cccc4cccc(c34)S2(=O)=O)c1C	13	-9%	-0.6	·	5.7	·	5	·
Cc1cc(OC(C)C(=O)NCCCN2CCCC2=O)c2c(C)c(C)c(=O)oc2c1 (stereo not given)	4.1	-4%	-0.4	-13	0.1	7.1	8	5
CC(C)c1nnc2c(N(C)S(=O)(=O)c3ccccc3)nc3ccccc3n12	-0.2	-3%	0.0	-4	-4.2	1.6	3	14
COc1ccc(-c2cc(C(=O)N/N=C(\C)c3cccnc3)c3ccccc3n2)c(OC)c1	5.7	·	-0.1	-10	-1.5	3.2	5	16
COC(=O)c1ccc(COc2ccc(C#N)cc2)o1	-1.3	·	-0.6	2	-1.4	-3.8	1	0
COc1ccccc1C(=O)NCC(=O)OC(C)C(=O)N1CCOCC1 (stereo not given)	4.0	4%	-0.1	2	-0.1	·	-12	-9
Cc1cc(S(=O)(=O)N(Cc2ccc(C(C)C)cc2)CC2CCCO2)ccc1-n1cnnn1 (stereo not given)	2.4	33%	0.5	8	·	5.5	5	33
COC(=O)C1CCCCN1C(=O)c1ccc(OC2CCN(C(C)=O)CC2)c(OC)c1 (stereo not given)	3.9	·	-0.3	-6	-1.9	-1.3	1	-9
Cc1ccc(O)c(NC(=O)c2cccc(NC(=O)c3ccco3)c2)c1	2.3	7%	0.4	-5	·	-0.3	0	-16
NC(=O)c1c(NC(=O)C(=O)NCCCN2CCOCC2)sc2c1CCCC2	-0.3	·	0.4	0	1.7	3.6	0	1
CCn1c(SCC(=O)OC)nc2cc(S(=O)(=O)N3CCOCC3)ccc21	-0.8	4%	1.8	2	1.1	-1.1	·	0
O=C(NCCCN1CCOCC1)c1cc(-c2cccs2)on1	-1.9	3%	0.1	-11	4.3	1.9	17	10
CCOc1cc2[nH]c(=S)n(CCC(=O)N3CCc4ccccc4C3)c(=O)c2cc1OCC	-0.4	-4%	-0.7	1	·	?	·	13
Cc1cccc(-c2nc(C#N)c(N3CCCCC3)o2)c1	0.0	1%	-1.4	13	8.2	-2.0	-1	9

Following part.
SMILES	LANA-H2B inh	Vif A3G	A1 inh	Calb FLC	AF4-AF9 inh	RanGTP-Imp inh	Beta apoptosis	T cruzi inh
CCc1ccc(NC(=O)N2CCN(c3ccccc3)CC2)cc1	-2.6	-18%	0.6	6	0.3	?	-4	-12
Cc1ccc2nc(NC(=O)C3CCN(S(=O)(=O)c4cccnc4)CC3)sc2c1	3.5	0%	-1.4	17	3.1	-0.2	·	28
Cc1ccc(Cn2ccc(NC(=O)c3cc(-c4ccco4)on3)n2)cc1	-1.3	20%	-0.5	33	·	?	-23	-23
CN1CCN(S(=O)(=O)c2ccc(Cl)s2)CC1	-1.6	·	0.1	-25	-0.8	-1.8	-6	4
CC(=O)Nc1ccc(S(=O)(=O)CCC#N)cc1	-0.6	25%	0.0	-8	·	-0.7	6	-6
CCN(CC(=O)Nc1c(F)cccc1F)C(=O)c1cc(S(=O)(=O)N(CC)CC)ccc1N1CCCCC1	-1.5	-11%	-0.8	-3	-1.1	-0.2	25	23
